Screens as filed in PubChem.
PfHsp40 rescue = restores yeast growth despite PfHsp40 toxicity; S. cerevisiae expressing PfHsp40, growth rescue, ATP luminescence; growth rescue, % at 12.5 µM; hit rate 0.68% among 340,000; AID 504582; in the data active = growth rescue above about 28%, passing the limit was not always enough;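 also: yeast W303a lacking pdr1 and pdr3 grown in galactose medium; growth measured after three days at 30 °C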
Y pestis TopoI = Y. pestis Topo-I inhibition via cleavage products. activity, % at 10 µM. hit rate 0.064% among 360,000. Y. pestis Topo-I cleavage product accumulation, plate reader; in the data active = activity above about 50%, passing the limit was not always enough; also: inactives centre near 2
SSB-PriA inh = blocks PriA binding to SSB C-terminal tail; AlphaScreen SSBct-PriA binding, biotinylated peptide; inhibition, % at 33 µM; hit rate 0.6% among 430,000; in the data active = inhibition mostly above about 37%, no sharp cut-off; inactive = mostly below about 20%;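 also: plate controls were negative control peptide for no effect and reference peptide for full effect; strong numbers were not always called active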
CCHF vOTU inh = CCHFV vOTU protease inhibition; Pep-AMC fluorescence; inhibition, % at 11.5 µM; hit rate 0.55% among 370,000; AID 651958; in the data active = inhibition above about 30%; also: 0% = vehicle wells with enzyme and 100% = no enzyme wells
VHR inh abs = blocks human VHR1 dual specificity phosphatase. hit rate 0.52% among 290,000. P51452. inhibition, % at 13.3 µM. recombinant VHR phosphatase, pNPP absorbance; in the data active = inhibition above about 50%; also: some compounds called inactive have numbers as strong as hits
Vc quorum ag = inducers of Vibrio cholerae quorum light production without autoinducers; V. cholerae BH1578 lux reporter, luminescence, 6 h; activation, % at 18.7 µM; hit rate 0.16% among 350,000; in the data active = activation mostly above about 9.7%, no sharp cut-off; also: not every result past the cut was called active; inactives centre near 0; reference of the scale not given here
TcdB inh = TcdB glycohydrolase inhibition; TcdB glycohydrolase enzymatic assay, plate reader; inhibition, % at 9.99 µM; hit rate 0.24% among 350,000; AID 652162; in the data active = inhibition above about 10%
Target sequence (P18177 whole entry, looked up): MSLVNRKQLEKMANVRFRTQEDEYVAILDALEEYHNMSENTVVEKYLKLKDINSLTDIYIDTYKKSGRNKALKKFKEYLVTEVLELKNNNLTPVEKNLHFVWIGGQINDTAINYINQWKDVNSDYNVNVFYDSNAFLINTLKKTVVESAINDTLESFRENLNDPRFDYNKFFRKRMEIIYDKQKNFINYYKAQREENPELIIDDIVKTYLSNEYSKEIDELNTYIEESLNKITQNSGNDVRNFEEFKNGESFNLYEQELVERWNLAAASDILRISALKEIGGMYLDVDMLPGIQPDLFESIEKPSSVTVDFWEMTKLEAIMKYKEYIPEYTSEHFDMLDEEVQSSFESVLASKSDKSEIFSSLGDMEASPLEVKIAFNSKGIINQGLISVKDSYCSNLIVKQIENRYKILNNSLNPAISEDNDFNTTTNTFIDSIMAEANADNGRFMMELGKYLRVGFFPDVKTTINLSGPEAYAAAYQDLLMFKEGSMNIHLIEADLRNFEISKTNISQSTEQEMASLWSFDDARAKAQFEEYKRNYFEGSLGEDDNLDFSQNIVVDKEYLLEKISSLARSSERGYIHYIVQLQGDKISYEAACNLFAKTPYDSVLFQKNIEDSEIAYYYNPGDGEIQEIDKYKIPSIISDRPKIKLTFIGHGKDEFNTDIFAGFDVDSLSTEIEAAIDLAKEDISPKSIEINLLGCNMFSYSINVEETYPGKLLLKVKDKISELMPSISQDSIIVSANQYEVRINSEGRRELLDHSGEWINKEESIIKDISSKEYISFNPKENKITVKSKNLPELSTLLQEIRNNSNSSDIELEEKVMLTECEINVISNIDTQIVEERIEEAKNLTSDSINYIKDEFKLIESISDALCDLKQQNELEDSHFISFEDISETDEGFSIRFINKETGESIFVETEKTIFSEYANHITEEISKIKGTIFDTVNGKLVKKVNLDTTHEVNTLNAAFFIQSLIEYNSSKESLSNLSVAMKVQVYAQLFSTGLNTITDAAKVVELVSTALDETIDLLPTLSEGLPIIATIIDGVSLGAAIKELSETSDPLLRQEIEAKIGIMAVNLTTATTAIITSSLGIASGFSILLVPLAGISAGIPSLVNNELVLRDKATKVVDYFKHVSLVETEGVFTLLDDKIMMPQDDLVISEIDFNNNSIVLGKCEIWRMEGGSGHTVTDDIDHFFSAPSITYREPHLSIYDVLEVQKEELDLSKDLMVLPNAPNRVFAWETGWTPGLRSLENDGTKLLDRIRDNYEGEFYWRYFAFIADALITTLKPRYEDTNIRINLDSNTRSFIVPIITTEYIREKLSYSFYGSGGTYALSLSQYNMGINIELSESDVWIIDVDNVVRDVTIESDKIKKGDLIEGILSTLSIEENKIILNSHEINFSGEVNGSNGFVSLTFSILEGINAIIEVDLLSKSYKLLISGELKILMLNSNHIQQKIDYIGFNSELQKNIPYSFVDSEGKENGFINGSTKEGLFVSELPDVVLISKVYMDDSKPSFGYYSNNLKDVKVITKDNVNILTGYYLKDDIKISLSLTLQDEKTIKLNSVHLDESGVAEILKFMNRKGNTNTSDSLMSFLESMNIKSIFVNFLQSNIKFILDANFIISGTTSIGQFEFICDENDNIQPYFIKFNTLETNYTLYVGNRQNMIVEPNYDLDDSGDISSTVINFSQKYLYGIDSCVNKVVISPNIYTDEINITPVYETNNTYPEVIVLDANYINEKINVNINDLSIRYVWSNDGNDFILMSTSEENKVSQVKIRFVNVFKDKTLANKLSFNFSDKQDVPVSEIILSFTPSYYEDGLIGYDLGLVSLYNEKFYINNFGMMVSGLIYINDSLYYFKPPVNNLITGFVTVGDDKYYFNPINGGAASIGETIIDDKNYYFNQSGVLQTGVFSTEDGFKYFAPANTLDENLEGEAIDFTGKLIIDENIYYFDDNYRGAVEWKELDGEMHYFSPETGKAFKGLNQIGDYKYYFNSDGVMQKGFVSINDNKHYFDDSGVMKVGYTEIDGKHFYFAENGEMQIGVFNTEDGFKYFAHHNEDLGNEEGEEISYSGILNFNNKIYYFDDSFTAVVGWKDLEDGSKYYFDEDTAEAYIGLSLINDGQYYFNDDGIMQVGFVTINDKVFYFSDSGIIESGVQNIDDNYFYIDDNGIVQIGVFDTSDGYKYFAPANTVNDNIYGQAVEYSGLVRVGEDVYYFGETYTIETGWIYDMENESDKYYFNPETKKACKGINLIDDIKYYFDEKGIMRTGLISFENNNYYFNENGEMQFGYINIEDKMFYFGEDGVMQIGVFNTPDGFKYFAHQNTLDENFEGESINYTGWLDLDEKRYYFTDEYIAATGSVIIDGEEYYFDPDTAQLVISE
BoNT A protease = BoNT A light chain protease inhibition. multiplex microsphere protease substrate cleavage, flow cytometry. inhibition, % at 10 µM. hit rate 0.17% among 360,000; in the data active = inhibition above about 30%; also: plate controls were buffer without enzyme for full effect and enzyme alone for no effect
An asterisk follows results filed as active; i = inactive; . = not tested or not shown; & = joins results of further samples. Only part of the results is shown; rates above refer to the full screens.

1	Nc1ccc(S(=O)(=O)Nc2cnc3ccccc3n2)cc1
2	COP(=S)(OC)SCn1nnc2ccccc2c1=O
3	C[C@]12CC[C@@H]3c4ccc(O)cc4CC[C@H]3[C@@H]1CCC2=O
4	CCC1(c2ccccc2)C(=O)NCNC1=O
5	CNC[C@H](O)c1cccc(O)c1
6	CN[C@H](C)[C@H](O)c1ccccc1
7	CCN(CC)C(=S)SSC(=S)N(CC)CC
8	CCN(CC)c1ccc2c(C)cc(=O)oc2c1

assay / entry	1	2	3	4	5	6	7	8
PfHsp40 rescue	2.1&0.6	0.1	0.7	0.8	-0.7	-1.5	-3.6	2.0
Y pestis TopoI	-3&5	4	-3	1	6	-10	3	10
SSB-PriA inh	-2	-9	-13	-4	16	.	3	-46
CCHF vOTU inh	4&11	-8	-3	11	6	.	-9	-91
VHR inh abs	19	.	28	1	-3	21	16	.
Vc quorum ag	-0.1	i	i	0.8	i	i	i	-0.5
TcdB inh	0.8&1.8	4.4	0.4	1.3	-3.4	.	-1.9	-0.2
BoNT A protease	-0.7&-0.9	-0.2	0.3	-0.3	-0.3	-0.9	0.8	0.5

From entry 1 up to 2, copied from above:
1	Nc1ccc(S(=O)(=O)Nc2cnc3ccccc3n2)cc1
2	COP(=S)(OC)SCn1nnc2ccccc2c1=O

assay / entry	1	2
PfHsp40 rescue	2.1&0.6	0.1
Y pestis TopoI	-3&5	4
SSB-PriA inh	-2	-9
CCHF vOTU inh	4&11	-8
VHR inh abs	19	.
Vc quorum ag	-0.1	i
TcdB inh	0.8&1.8	4.4
BoNT A protease	-0.7&-0.9	-0.2

Additional structures.
9	OCCN1CCN(CCCN2c3ccccc3Sc3ccc(C(F)(F)F)cc32)CC1
10	NS(=O)(=O)c1ccc(NC(=O)CCC(=O)O)cc1
11	CC(C)(C)c1ccccc1O
12	CN(C)CC[C@@H](c1ccc(Cl)cc1)c1ccccn1
13	O=C(O)CCCCC1CCSS1 (stereo not given)
14	O=C(O)CCc1ccc(-c2ccccc2)o1
15	C[C@]12C=CC(=O)C=C1CC[C@@H]1[C@@H]2[C@@H](O)C[C@@]2(C)[C@H]1CC[C@]2(O)C(=O)CO
16	CN1C2CCC1CC(OC(c1ccccc1)c1ccccc1)C2 (stereo not given)

assay / entry	9	10	11	12	13	14	15	16
PfHsp40 rescue	1.1	.	-1.3	-0.1	1.6	2.7	-0.1	-0.4
Y pestis TopoI	2	1	4	21	-7	-2	5	-8
SSB-PriA inh	10	.	6	-11	3	-12	-5	2
CCHF vOTU inh	17	-7	-2	4	1	1	-7	2
VHR inh abs	1	.	.	.	108	1	29	-12
Vc quorum ag	5.6	-0.4	-0.1	-0.7	-0.5	i	-0.2	i
TcdB inh	3.5	0.1	0.9	1.5	-4.2	.	6.5	0.0
BoNT A protease	-0.1	-0.2	-1.0	-0.2	-0.7	2.2	-0.4	-1.7

17	Cc1ccc2cc(C)c3nnc(SCC(=O)N4CCN(C(=O)c5ccco5)CC4)n3c2c1
18	CCOc1ccccc1N1CCN(Cc2cn[nH]c2-c2ccc(F)cc2)CC1
19	NCCS
20	O=C(c1ccccc1)C(O)c1ccccc1 (stereo not given)
21	Cc1cc(C)c2c(N)c(C(=O)NC3CC3)sc2n1
22	Oc1ccc(C[C@H]2NCCc3cc(O)c(O)cc32)cc1O
23	Nn1cnc2cc3ccccc3cc2c1=O
24	CCCCCCCC(=O)O

assay / entry	17	18	19	20	21	22	23	24
PfHsp40 rescue	-1.9	0.1	-1.9	-0.9	1.1	-1.3	1.2	-1.4
Y pestis TopoI	3	0	8	-6	-1	-6	2	-2
SSB-PriA inh	1	11	4	1	13	1	11&-8	-15
CCHF vOTU inh	-14	5	-12	-4	2	-19	-3	-4
VHR inh abs	-6	13	-7	.	19	31	-14	.
Vc quorum ag	-5.9	-0.9	i	-0.3	i	i	i	-0.6
TcdB inh	0.9	1.4	-0.2	0.9	.	0.3	-0.5	0.7
BoNT A protease	-0.2	-0.4	-1.7	-0.5	-0.5	-8.2	0.7	0.2

25	COC(=O)NC(=S)Nc1ccccc1NC(=S)NC(=O)OC
26	Cc1c(N)cccc1Cl
27	Nc1cc(-c2ccccc2)ccc1O
28	Nc1nc2c(ncn2COC(CO)CO)c(=O)[nH]1
29	CC(=O)NS(=O)(=O)c1ccc(N)cc1
30	Cc1cc(C(C)(C)C)c(O)c(C(C)(C)C)c1
31	CC(=O)N[C@@H](CS)C(=O)O
32	CC(=O)Nc1cccc(OCc2cnc(Cl)s2)c1

assay / entry	25	26	27	28	29	30	31	32
PfHsp40 rescue	-1.2	-1.5	37*	-0.9	-1.4&-0.6	4.4	3.9	-0.8
Y pestis TopoI	6	9	-11	0	-1&-3	6	0	3
SSB-PriA inh	-11	-6	-15	-4	1&-10	-9	-6	1
CCHF vOTU inh	20	-2	-2	-1	-1&-9	5	-11	2
VHR inh abs	.	.	-10&32	20	-3	11	9	18
Vc quorum ag	0.3	-0.4	4.3	4.2	1.1&15	-0.2	4.3	-0.9
TcdB inh	1.3	-2.0	.	1.3	0.6&0.1	1.8	-0.6	0.6
BoNT A protease	-0.8	-0.1	0.3	-0.2	-0.4&-1.0	-0.2	-0.2	-0.6

Reprinted from the part before: four compounds, followed by the next part.
29	CC(=O)NS(=O)(=O)c1ccc(N)cc1
30	Cc1cc(C(C)(C)C)c(O)c(C(C)(C)C)c1
31	CC(=O)N[C@@H](CS)C(=O)O
32	CC(=O)Nc1cccc(OCc2cnc(Cl)s2)c1
33	O=C(N[C@H](CO)[C@H](O)c1ccc([N+](=O)[O-])cc1)C(Cl)Cl
34	CC(=O)O[C@]1(C(C)=O)CCC2C3C=C(C)C4=CC(=O)CC[C@]4(C)C3CC[C@@]21C (stereo not given in full)
35	CN1C(=O)CN=C(c2ccccc2)c2cc([N+](=O)[O-])ccc21
36	CC(=O)O[C@]1(C(C)=O)CC[C@H]2[C@@H]3C=C(C)C4=CC(=O)CC[C@]4(C)[C@H]3CC[C@@]21C
37	CNCCC(Oc1ccc(C(F)(F)F)cc1)c1ccccc1 (stereo not given)
38	CCN(CC)CC#CCOC(=O)C(O)(c1ccccc1)C1CCCCC1 (stereo not given)
39	CNCC[C@@H](Oc1ccc(C(F)(F)F)cc1)c1ccccc1
40	Nc1c(Cl)cc([N+](=O)[O-])cc1Cl
41	Cc1nccn1Cc1ccccc1
42	COc1ccc(C(=O)N2CCCC2=O)cc1
43	O=C(O)[C@H](O)[C@@H](O)C(=O)O

assay / entry	29	30	31	32	33	34	35	36	37	38	39	40	41	42	43
PfHsp40 rescue	-1.4&-0.6	4.4	3.9	-0.8	-1.1	-0.7	.	0.1&-0.6	1.1	-0.8	9.5	0.2	-0.6	-2.3	0.0
Y pestis TopoI	-1&-3	6	0	3	-3	9	.	1	-12	29	-10	-3	-8	0	6
SSB-PriA inh	1&-10	-9	-6	1	-7	3	.	-9	-3	0	-7	-1	5	-4	3
CCHF vOTU inh	-1&-9	5	-11	2	4	-8	.	0	0	8	0	-4	4	-11	7
VHR inh abs	-3	11	9	18	.	10	16	1&7	-18	5	.	.	2	-7	.
Vc quorum ag	1.1&15	-0.2	4.3	-0.9	-0.6	i	.	8.0&2.8	i	i	i	i	i	i	-0.4
TcdB inh	0.6&0.1	1.8	-0.6	0.6	0.7	4.6	.	1.1	2.2	-1.3	2.3	-0.4	-10	1.7	0.5
BoNT A protease	-0.4&-1.0	-0.2	-0.2	-0.6	-0.3	1.8	.	-0.6	-1.0	-1.5	-1.6	3.7	-0.6	-0.5	-1.5

In the list so far, 6 have a COOH group.
10	NS(=O)(=O)c1ccc(NC(=O)CCC(=O)O)cc1
13	O=C(O)CCCCC1CCSS1 (stereo not given)
14	O=C(O)CCc1ccc(-c2ccccc2)o1
24	CCCCCCCC(=O)O
31	CC(=O)N[C@@H](CS)C(=O)O
43	O=C(O)[C@H](O)[C@@H](O)C(=O)O

assay / entry	10	13	14	24	31	43
PfHsp40 rescue	.	1.6	2.7	-1.4	3.9	0.0
Y pestis TopoI	1	-7	-2	-2	0	6
SSB-PriA inh	.	3	-12	-15	-6	3
CCHF vOTU inh	-7	1	1	-4	-11	7
VHR inh abs	.	108	1	.	9	.
Vc quorum ag	-0.4	-0.5	i	-0.6	4.3	-0.4
TcdB inh	0.1	-4.2	.	0.7	-0.6	0.5
BoNT A protease	-0.2	-0.7	2.2	0.2	-0.2	-1.5
